A647 fluor: compound autofluorescence in A647 spectral region; 59,000 tested, under 10 active; max dye-equivalent concentration, M; Compound fluorescence, A647 channel (570/671 nm), Tris buffer; active means above 1 µM dye equivalent; inconclusive means 0.1 to 1 µM; inactive means 0.1 µM or less;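 note: values scaled relative to a standard on each plate; highest value over a series up to 38 µM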
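Spectral profiling of library compounds in pH 8.0 Tris: 15 min room-temperature incubation, single ex/em pair (570/671 nm), response normalized to Alexa 647 equivalents.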
TSHR agonist: activates the human thyroid stimulating hormone receptor; P16473; HEK293-CNG-TSHR cells (CNG channel as cAMP sensor), membrane potential dye, cAMP; Potency, µM (highest dose often 57.1 µM), for the others: top-dose activation, actives largely listed as activators; 73,000 compounds, 0.48% hits; active = well fitted activation curve of enough size with the parental cells flat; inconclusive = any curve in the parental cells; inactive = parental cells flat and receptor cells flat or falling; note: potency is the fitted concentration of half-maximal effect; % of control where 0% means no effect; weak receptor curves with flat parental cells got no call and are not listed
Target sequence (P16473 whole entry, looked up): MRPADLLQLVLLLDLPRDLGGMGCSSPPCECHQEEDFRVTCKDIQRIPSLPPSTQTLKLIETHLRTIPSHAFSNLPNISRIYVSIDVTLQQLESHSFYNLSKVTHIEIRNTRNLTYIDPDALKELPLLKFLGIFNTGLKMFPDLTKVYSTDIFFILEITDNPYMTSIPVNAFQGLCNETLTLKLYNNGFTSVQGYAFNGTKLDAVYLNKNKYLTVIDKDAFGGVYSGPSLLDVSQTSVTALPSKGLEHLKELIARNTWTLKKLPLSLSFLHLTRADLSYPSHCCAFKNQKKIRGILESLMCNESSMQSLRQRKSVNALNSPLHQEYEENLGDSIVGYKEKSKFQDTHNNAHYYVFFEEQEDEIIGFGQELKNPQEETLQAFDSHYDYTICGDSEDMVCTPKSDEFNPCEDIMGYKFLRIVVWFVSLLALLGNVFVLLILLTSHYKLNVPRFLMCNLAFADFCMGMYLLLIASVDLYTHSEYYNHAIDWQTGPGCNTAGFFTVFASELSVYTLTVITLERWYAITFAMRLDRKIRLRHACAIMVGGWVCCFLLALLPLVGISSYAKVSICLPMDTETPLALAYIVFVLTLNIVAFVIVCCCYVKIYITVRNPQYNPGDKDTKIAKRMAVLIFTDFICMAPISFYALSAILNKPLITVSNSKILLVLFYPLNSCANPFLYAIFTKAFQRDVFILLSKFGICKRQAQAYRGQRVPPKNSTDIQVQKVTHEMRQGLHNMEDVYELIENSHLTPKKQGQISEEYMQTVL
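cAMP rise detected as CNG-channel membrane depolarization by fluorescent dye (emission 590 nm), 30 min after compound, following 60 min dye loading containing 100 uM RO 20-1724 at room temperature. Cells: TSHR/CNG HEK 293, with parental CNG HEK 293 as control.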
AID923: qHTS Assay for Allosteric/Competitive Inhibitors of Caspase-1: Spectroscopic Profiling in AFC Spectral Region. AID 923, 2007. Potency, µM (series often up to 57.5 µM), for the others: at the highest dose fluorescence increase, most hits filed as activators. compound fluorescence, AFC spectral region (405/520 nm); almost no hit is shown here. 75,000 compounds, 1.1% hits; active = well fitted activation curve with a large enough effect; inconclusive = small, poorly fitted or top-dose-only effect;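 note: potency is the fitted concentration of half-maximal effect; 0% is about no effect; scaled to a free AFC standard on each plate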
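Baseline compound fluorescence (AFC region, 405 nm ex/520 nm em) taken from the intercept of kinetic reads with 50 nM caspase-1 and 5 uM Ac-WEHD-AFC; normalized to an on-plate AFC standard curve; compounds titrated up to 57 uM.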
A488 fluor: compound autofluorescence in A488 spectral region | compound autofluorescence, A488 spectral region, dye equivalency; active compounds read high | max dye equivalency, M | 59,000 compounds, 0.1% hits; active = above 10 nM dye equivalent; inconclusive = 1 to 10 nM; inactive = 1 nM or less; about half of its hits are not listed in these tables;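 note: highest value over a series up to 38 µM; compound alone in buffer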
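Read-out: relative fluorescence at 480/540 nm, expressed as Alexa 488 dye-equivalent concentration from a six-point A488 standard included per plate. Conditions: 100 mM Tris, pH 8.0; 15 min incubation, room temperature.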
Resorufin fluor: resorufin region autofluorescence; Compound fluorescence, resorufin region 547/598 nm, buffer; active compounds read high; max dye-equivalent concentration, M; 59,000 compounds, 0.04% hits; AID 588; active = above 10 nM dye equivalent; inconclusive = 1 to 10 nM; inactive = 1 nM or less; a few of its hits are not listed in these tables; note: highest value over a series up to 38 µM
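Intrinsic fluorescence profiled in the resorufin window (ex 547 nm, em 598 nm) after 15 min at room temperature in pH 8.0 Tris buffer (100 mM); responses normalized against a six-point resorufin standard series as dye-equivalent concentration.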
The depositor's hits bear a star; i = inactive; u = inconclusive; x = not tested or not shown; [ ] = another dose, or the depositor's remark. Some of the compounds tested, so the mix of outcomes need not match the whole.

# | Compound | A647 fluor | TSHR agonist | AID923 | A488 fluor | Resorufin fluor
1 | O=S(=O)(NCc1ccc2c(c1)OCO2)c1cccc(S(=O)(=O)N2CCOCC2)c1 | 3.4e-08 | -1% | -2.6% | i | i
2 | CCCC(c1nnnn1C1CCCCC1)N1CCN(C2CCCC2)CC1 (centres undefined) | 3.1e-08 | u | 1.3% | i | i
3 | NC(=O)c1cc(Cl)cn(-c2ccccc2)c1=O | x | 3% | 0.0% | x | x
4 | CCOc1ccc(NC(=O)c2ccc(N)cc2)cc1 | x | -1% | 0.4% | x | x
5 | COc1ccc(CNC(=O)C2COc3ccccc3O2)c(OC)c1 (centres undefined) | 1e-09 | 24% | -0.5% | i | i
6 | Cn1c(SCc2nc3ccccc3[nH]2)nnc1-c1cccs1 | 1.4e-09 | 3% | 4.9% | i | i
7 | CCOc1ccc(NC(=O)CCS(=O)(=O)c2ccc3c(c2)CCCN3C(C)=O)cc1 | 1.2e-08 | 25% | 0.0% | i | i
8 | CC1CCCN(C(=O)CSCC(=O)N=c2sc3ccccc3n2C)C1 (centres undefined) | 2.8e-08 | u | -0.2% | i | i
9 | CCNC(=O)c1ccccc1-c1nc(-c2ccccc2Cl)no1 | 6.3e-09 | 6%[11.4 µM] | 0.0% | i | i
10 | Cn1nnnc1SCc1cn2cccnc2n1 | 1e-09 | -3% | 0.5% | i | i
11 | N#CCC(=O)NCCCOC(=O)Nc1ccc(Cl)c(Cl)c1 | x | -12% | 0.7% | x | x
12 | O=C(CSc1nc(-c2cccs2)cc(C(F)(F)F)n1)NCc1ccco1 | 3.8e-09 | u | -1.2% | i | i
13 | O=C(NC1CCCCCC1)c1ccc(N2CCCC2=O)cc1 | 2.1e-08 | 0% | -0.5% | i | i
14 | CCOC(=O)C1CCCN(C(=O)C2CC(=O)N(c3ccc(C)cc3)C2)C1 (centres undefined) | 3.1e-09 | -4% | -2.2% | i | i
15 | Cc1nonc1NC(=O)Nc1cccnc1 | 2.4e-09 | -2% | 0.6% | i | i
16 | O=S(=O)(Nc1nc2ccccc2nc1NCCO)c1cccc(Cl)c1 | 2.3e-08 | u | 1.7% | i | i
17 | O=C(c1cc(C(F)(F)F)cc(C(F)(F)F)c1)N1CCC2(CC1)CCN(c1ccncc1)CC2 | 2e-08 | u | 1.7% | i | i
18 | CC1(C)CC(=O)c2c(nc3ccccc3c2N)C1 | 1e-09 | -2% | -1.6% | i | i
19 | Cc1cc(C)nc(SCCCn2c(=O)[nH]c3ccccc32)n1 | x | 7% | 0.3% | x | x
20 | COCCn1c(=O)c(-c2cccc(F)c2)nc2cncnc21 | 1e-09 | -3% | 9.4% | i | i
21 | Cc1ccc(C(c2sc3ncnn3c2O)N2CC(C)CC(C)C2)cc1 (centres undefined) | x | u | -0.6% | x | x
22 | Cn1nnnc1SCc1cc(=O)n2ccsc2n1 | 9.7e-09 | 3% | 0.7% | i | i
23 | CC(C)(C)NC(=O)Cn1nnc(-c2ccccc2Cl)n1 | 1e-09 | -1% | 0.6% | i | i
24 | Cc1cn(C2C=CC(CO)O2)c(=O)[nH]c1=O (centres undefined) | 1e-09 | 10% | -1.6% | i | i
25 | N#Cc1ccccc1-n1c(N)c(C(=O)N2CCCC2)sc1=S | 1e-09 | -7% | 1.8% | i | i
26 | NC(=O)NC(=O)COC(=O)CCCc1c[nH]c2ccccc12 | 2.8e-08 | 3% | 0.2% | i | i
27 | CCOC(=O)c1[nH]c(C(=O)O)c(CCN(CC)CC)c1C | 5.7e-09 | 2% | 3.1% | i | i
28 | CCN1C(=O)C(O)(C2COC(C)(C)CC2=O)c2cc(Br)ccc21 (centres undefined) | 2.5e-09 | 3% | -0.5% | i | i
29 | COc1ccc(S(=O)(=O)N(C)CC(=O)O)c2ccccc12 | 3.3e-08 | 8% | 1.2% | i | i
30 | COc1ccccc1N1CCN(c2ncnc3nc[nH]c23)CC1 | x | -22% | -1.1% | x | x
31 | NC(=O)C1(N2CCCCC2)CCN(CC(=O)Nc2cc(Cl)ccc2Cl)CC1 | 3.8e-09 | 12% | -0.5% | i | i
32 | CC(=O)Nc1ccc(C2(O)COc3ccccc3O2)cc1 (centres undefined) | 2.8e-08 | 6% | -1.7% | i | i
33 | O=C(Nc1cccnc1)c1cn(-c2ccccc2)nc1-c1cccs1 | 1e-09 | 8% | 0.8% | i | i
34 | O=C(c1cc(Cl)ccc1Cl)N1CCN(c2ccccn2)CC1 | 3.9e-08 | 12% | 2.8% | i | i
35 | Cc1cc(C)n(CC(O)COc2cccc(OCC(O)Cn3nc(C)cc3C)c2)n1 (centres undefined) | x | -1% | 9.8% | x | x
36 | COc1cccc(C2CC(C(F)(F)F)n3ncc(C(=O)O)c3N2)c1 (centres undefined) | 1e-09 | 8% | -0.3% | i | i
37 | CCN1CCc2nc(NC(=O)Cc3ccc4c(c3)OCCO4)sc2C1 | 5.1e-09 | 4% | 3.2% | i | i
38 | O=C(NC(Cc1ccccc1)C(=O)O)c1ccc(S(=O)(=O)N2CCCC2)cc1 (centres undefined) | 1.2e-09 | 6% | 0.8% | i | i
39 | COc1ccccc1N1CCN(C(=O)CSc2nc(-c3ccccc3)cc(=O)[nH]2)CC1 | 2.8e-08 | 19% | -0.4% | i | i
40 | Cn1c(SCC(=O)c2ccccc2)nnc1C1CC1 | 4.7e-08 | -2% | -2.4% | i | i
41 | Cc1nc2ccc(S(=O)(=O)Nc3ccccc3C)cc2s1 | 1e-09 | 24% | 0.3% | i | i
42 | COCCCNS(=O)(=O)c1ccc2c(c1)OCCO2 | x | 10%[11.4 µM] | 0.9% | x | x
43 | COc1cc(-c2nnc3sc(-c4cccnc4)nn23)cc(OC)c1OC | 3.2e-08 | u | -0.9% | i | i
44 | COc1cccc(Cn2nnc(C(=O)Nc3cc(C)ccc3OC)c2N)c1 | x | 2% | -0.5% | x | x
45 | O=C(Oc1cccc(N2C(=O)CCC2=O)c1)C1CC(=O)N(c2ccc(F)cc2)C1 (centres undefined) | 1.7e-08 | -2% | -2.8% | i | i
46 | CCCCCOC(=O)CSc1nnc(-c2ccccc2)c(=O)[nH]1 | 1.2e-08 | 8% | 1.6% | i | i
47 | CN(C1CCCCC1)S(=O)(=O)c1ccc(NC(=O)c2ccc(Br)o2)cc1 | 3.1e-08 | 14% | -2.5% | i | i
48 | CCOC(=O)Nc1ccc2c(c1)N(C(=O)CCN1CCOCC1)c1ccccc1S2=O (centres undefined) | 2.1e-08 | 2% | -0.9% | i | i
49 | Nc1nc(NC(=O)c2ccco2)nn1-c1ccccc1 | x | 12%[11.4 µM] | 2.5% | x | x
50 | O=C(COC(=O)c1ccccn1)Nc1cccc(Cl)c1Cl | 1.2e-09 | 0% | 0.0% | i | i

New compounds follow
# | Compound | A647 fluor | TSHR agonist | AID923 | A488 fluor | Resorufin fluor
51 | O=C(COC(=O)CCNS(=O)(=O)c1ccc2c(c1)OCCO2)NC1CCCc2ccccc21 (centres undefined) | 1e-08 | 4% | -1.6% | i | i
52 | Cc1ccccc1-c1nc(NC2CCNCC2)c2ccccc2n1 | 8.5e-09 | -1% | 1.6% | i | i
53 | COc1ccc(-c2nn(C)c(=O)c3ccccc23)cc1NC(=O)Cn1nc(C)c2ccccc2c1=O | 1.5e-08 | 12% | -1.1% | i | i
54 | CCOC(=O)c1ccc(Nc2cc(C)nc(N3CCOCC3)n2)cc1 | 4.8e-08 | -10% | 0.4% | i | i
55 | c1ccc(CCn2nnnc2CN2CCCc3ccccc32)cc1 | 1.4e-09 | 18% | 5.2% | i | i
56 | CCOc1ccc2[nH]c(=O)c(CN(Cc3nnnn3Cc3ccco3)C3CCCCC3)cc2c1 | 2.7e-08 | u | 8.4% | i | i
57 | CCOC(=O)COc1ccc(S(=O)(=O)N2CCN(C(=O)OCC)CC2)cc1 | 1.7e-08 | 6% | 2.2% | i | i
58 | CCOc1cc(S(=O)(=O)NCc2cccs2)ccc1Cl | 2.8e-09 | -1% | 2.5% | i | i
59 | O=C1CCCC=C1[C@@H](O)C1CCCCC1 | x | -2%[11.4 µM] | 1.0%[11.5 µM] | x | x
60 | CCN1C(=O)[C@H]2[C@H]3[C@H](O)[C@H](O)C/C(=N/OC[C@@H](C)[C@H](OCc4ccccc4)C(C)C)[C@@H]3CC[C@@H]2C1=O | x | 4%[11.4 µM] | -3.8%[11.5 µM] | x | x
61 | COC(=O)c1c(C)nn(-c2ccccc2)c1N | x | 0% | 0.3% | x | x
62 | Nc1nnc(-c2cn(-c3ccccc3)nc2-c2ccccc2)o1 | 1e-09 | -6%[11.4 µM] | 4.4% | i | i
63 | CSc1nc(NC(C)(C)C)nc(N2CCOCC2)n1 | 1e-09 | 15% | 0.3% | i | i
64 | COc1ccc(-c2[nH]nc3c2C(c2ccncc2)C(C#N)=C(N)O3)cc1 (centres undefined) | 2.2e-08 | 7% | 0.3% | i | i
65 | CC1=C(C(=O)OCC2CCCO2)C(c2ccc(C)o2)C2=C(CC(c3ccc(F)cc3)CC2=O)N1 (centres undefined) | 1e-09 | u | 2.0% | i | i
66 | Cc1nccn1S(=O)(=O)c1ccc(Br)cc1Br | 4.8e-08 | 8% | -0.1% | i | i
67 | COC(=O)C1=C(C)N=C2SC(C)C(=O)N2C1c1cccs1 (centres undefined) | 1e-09 | x | x | i | i
68 | O=C(NCCc1c[nH]c2ccccc12)c1ccc(-n2cnnn2)cc1 | 1e-09 | -1% | 1.1% | i | i
69 | CCC(=O)N1c2ccccc2NC2=C(C(=O)CCC2)C1c1cccnc1 (centres undefined) | 4.3e-08 | u | -1.3% | i | i
70 | c1c(C2CCCCC2)n[nH]c1CN1CCCCC1 | x | 24% | 3.9% | x | x
71 | O=C(Nc1c(F)cc(F)cc1Br)C1CCCO1 (centres undefined) | 4.5e-09 | -9% | -1.4% | i | i
72 | O=C(CN1C(=O)COc2ccccc21)N1CCCc2ccccc21 | 4.3e-09 | 0% | -2.2% | i | i
73 | O=C(c1cc2ncc(Br)cn2n1)N1CCN(C(=O)c2ccco2)CC1 | 1.4e-08 | 2% | -1.9% | i | i
74 | COc1cc(C2C3C(=O)N(c4ccccc4)C(=O)C3ON2c2ccccc2)ccc1O (centres undefined) | 3e-08 | x | x | i | i
75 | CCCC(=O)NCc1nc2ccccc2n1C | 3.1e-09 | -4% | 3.7% | i | i
76 | Cn1c(=O)c2c(nc(NCc3cccnc3)n2Cc2cccc(C(F)(F)F)c2)n(C)c1=O | 1.1e-08 | 4% | -2.2% | i | i
77 | NS(=O)(=O)c1nc(S(=O)(=O)O)c2[nH]cnc2n1 | 5e-08 | -2%[11.4 µM] | 0.5%[11.5 µM] | i | i
78 | COc1ccc(O)c(C(=O)c2cnc3onc(C)c3c2)c1 | 1.9e-09 | -2% | 3.0% | i | i
79 | Cc1ccccc1OCC(=O)Nc1ccc2c(c1)COC2=O | 3.6e-09 | -6% | 0.9% | i | i
80 | CCN(C(=O)CSc1nnnn1-c1cc(C)ccc1OC)C1CCS(=O)(=O)C1 (centres undefined) | 3.5e-08 | 1% | 0.0% | i | i
81 | CC(CCc1ccco1)NC(=O)c1cc2c(-c3ccccc3F)nn(C)c2s1 (centres undefined) | x | u | 2.0% | x | x

Part of the list above in another layout:
[14] CCOC(=O)C1CCCN(C(=O)C2CC(=O)N(c3ccc(C)cc3)C2)C1 (centres undefined)
- A647 fluor: 3.1e-09
- TSHR agonist: -4%
- AID923: -2.2%
- A488 fluor: i
- Resorufin fluor: i

[15] Cc1nonc1NC(=O)Nc1cccnc1
- A647 fluor: 2.4e-09
- TSHR agonist: -2%
- AID923: 0.6%
- A488 fluor: i
- Resorufin fluor: i

[16] O=S(=O)(Nc1nc2ccccc2nc1NCCO)c1cccc(Cl)c1
- A647 fluor: 2.3e-08
- TSHR agonist: u
- AID923: 1.7%
- A488 fluor: i
- Resorufin fluor: i

[17] O=C(c1cc(C(F)(F)F)cc(C(F)(F)F)c1)N1CCC2(CC1)CCN(c1ccncc1)CC2
- A647 fluor: 2e-08
- TSHR agonist: u
- AID923: 1.7%
- A488 fluor: i
- Resorufin fluor: i

Assay outcomes (PubChem BioAssay)
